PKD1 inh: inhibitors of human PKD1 kinase, biochemical, fluorescence polarization. Serine/threonine-protein kinase D1 (Homo sapiens), Q15139. PKD1 kinase fluorescence polarization assay. inhibition, %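 (about 10 µM by stock and volumes)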. actives 0.056% (n = 200,000);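 active = inhibition of 50% or more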;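 also: controls were vehicle for no effect and a reference inhibitor for full effect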
Insulin prom inh: inhibitors of insulin promoter-driven GFP, primary screen, imaging, TRM-6 cells (human fetal islet line), eGFP reporter, cell count. reporter expression induced with tamoxifen. actives 0.9% (n = 130,000). inhibition, % at 2 µM;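 active = inhibition above the mean plus 3 SD, with well images judged a real hit on visual review, cut at about 60% in these data, passing the limit was not always enough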
GALR2 agonist: GALR2 receptor agonists, primary screen, cell-based; activation, %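 (tested at 5 µM)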; AID 803, 2007; GALR2-expressing cells, agonist activation read-out; actives 0.48% (n = 140,000);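 active = above mean plus 3 SD of all compounds, about 5% in these data, not always enough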;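 also: 0% = vehicle buffer wells and 100% = reference agonist at full effect; tested in CHO reporter cells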
Target sequence (O43603 whole entry, looked up): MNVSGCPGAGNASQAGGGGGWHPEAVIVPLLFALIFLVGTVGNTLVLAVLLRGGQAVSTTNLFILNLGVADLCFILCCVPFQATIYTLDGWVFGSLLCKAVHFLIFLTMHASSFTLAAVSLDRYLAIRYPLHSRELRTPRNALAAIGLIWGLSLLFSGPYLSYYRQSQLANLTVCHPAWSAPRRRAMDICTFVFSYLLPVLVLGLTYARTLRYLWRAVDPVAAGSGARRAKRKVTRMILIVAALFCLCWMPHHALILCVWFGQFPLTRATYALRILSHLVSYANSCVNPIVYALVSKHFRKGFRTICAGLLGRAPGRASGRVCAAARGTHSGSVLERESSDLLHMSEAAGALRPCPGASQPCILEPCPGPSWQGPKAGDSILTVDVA
HSV augment: enhancers of HSV replication in host cells, fold increase, host cell viability. HSV replication augmentation in cells. AID 1956, 2009. actives 0.005% (n = 220,000). maximum fold increase;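 active = peak rise of 1.5-fold or more in the series; tested in PC3 cells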;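 also: first round at 10 µM; read as green reporter fluorescence; hits show the peak of a series up to 25 µM; 1 = signal of infected wells without compound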
RGS16-Gao: modulators of RGS16 binding to Galphao, primary screen, biochemical, human proteins, multiplexed bead flow cytometry; Regulator of G-protein signaling 16 (Homo sapiens) + Guanine nucleotide-binding protein …; bead-based flow cytometry RGS16-Galphao binding, fluorescence; actives lie on both sides; binding response (% of control), % at 10 µM; actives 0.38% (n = 220,000); AID 1441, 2008;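 active = below 25% or above 175%, edge rows of some plates excepted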;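 also: Galphao activated by GDP with aluminum fluoride before binding; 100% = wells without compound and 0% = beads without RGS; some results beyond the cut were filed as inactive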
Target sequence (O15492 whole entry, looked up): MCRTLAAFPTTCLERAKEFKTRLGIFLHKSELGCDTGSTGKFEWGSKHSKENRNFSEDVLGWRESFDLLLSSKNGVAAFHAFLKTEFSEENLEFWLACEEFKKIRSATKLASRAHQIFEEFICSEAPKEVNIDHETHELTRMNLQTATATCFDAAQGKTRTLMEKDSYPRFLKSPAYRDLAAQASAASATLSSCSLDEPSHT
Target sequence (P09471 whole entry, looked up): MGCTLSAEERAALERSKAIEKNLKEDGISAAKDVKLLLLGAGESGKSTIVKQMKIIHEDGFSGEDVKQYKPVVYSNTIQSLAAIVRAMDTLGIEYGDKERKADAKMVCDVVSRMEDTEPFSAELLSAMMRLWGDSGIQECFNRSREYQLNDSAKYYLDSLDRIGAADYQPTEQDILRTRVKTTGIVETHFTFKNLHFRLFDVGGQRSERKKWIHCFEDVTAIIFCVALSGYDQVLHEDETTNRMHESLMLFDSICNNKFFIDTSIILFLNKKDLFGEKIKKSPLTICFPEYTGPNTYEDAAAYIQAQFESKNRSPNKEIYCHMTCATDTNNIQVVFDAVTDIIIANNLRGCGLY
Insulin prom inh cell count: second read-out of Insulin prom inh, no call of its own (marks repeat the call); normalized cell count, %; measured here: cell count, toxicity; reference of the scale not given here;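 cells exposed to compound for 48 h; stained nuclei by imaging scaled within each plate; lower means fewer cells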
HSV augment primary fold: also measured in HSV augment; calls as there; fold increase; compound at 10 µM; measured here: primary screen fold increase 10 uM; tested in PC3 cells;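 GFP signal in the first replicate; 1 = infected wells without compound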
Numbers without * were called inactive; i = inactive; x = not tested or not shown.

smiles,PKD1 inh,Insulin prom inh,Insulin prom inh cell count,GALR2 agonist,HSV augment,HSV augment primary fold,RGS16-Gao
COCCNC(=O)c1c(N)n(-c2ccccc2)c2nc3ccccc3nc12,-1,22,75,4.9*,i,0.96,98
CCc1ccc(OCC(=O)Nc2ccc(S(=O)(=O)N3CCCC3)cc2)c(Br)c1,-2,-10,73,-2.8,i,0.79,102
CC(=O)N1N=C(c2cccs2)CC1c1ccco1 (stereo unspecified),2,48,139,x,i,0.99,105
Cc1ccc(/C=C(\C#N)C(=O)N2CCCC2)c(C)c1,-1,-70,88,x,i,1,99
O=C(/C=C/c1cccc([N+](=O)[O-])c1)Nn1c(-c2ccccc2F)nc2ccccc2c1=O,1,6,108,-0.5,i,0.93,100
COc1ccc(C(=O)Nc2ccc(NC(=O)c3cnccn3)cn2)cc1,-6,17,112,-0.8,i,0.87,126
COc1cccc(N(C(=O)Cn2nnc3ccccc32)C(C(=O)NCc2ccco2)c2cccnc2)c1 (stereo unspecified),2,x,x,-0.9,i,1.1,94
COc1ccc(CNC(=O)COC(=O)c2ccccn2)cc1,-5,-33,175,x,i,0.85,104
CCN=C1SC(C(=O)Nc2ccc(Cl)c(Cl)c2)CC(=O)N1CC (stereo unspecified),0,x,x,-2.7,x,x,102
O=C(NCCc1ccccc1)c1n[nH]c2ccccc12,4,x,x,x,i,0.91,101
CCSc1nnnn1-c1ccccc1,-10,-22,125,-0.4,i,0.98,102
COc1cccc(CN2CC(O)=C(c3nc(-c4ccc(Cl)cc4)cs3)C2=N)c1,-1,20,48,-1.9,x,x,103
Brc1cccc(-c2cnco2)c1,2,x,x,x,i,1.1,96
Cc1ccc2nc(S(=O)(=O)O)[nH]c2c1,-6,x,x,-1.6,i,0.85,103
N#Cc1c(N)c(C(=O)c2ccc(Br)cc2)n2c1CCC2,-11,x,x,-2.0,i,0.63,99

One compound at a time, as listed above. Order of screens: PKD1 inh	Insulin prom inh	Insulin prom inh cell count	GALR2 agonist	HSV augment	HSV augment primary fold	RGS16-Gao
CCN=C1SC(C(=O)Nc2ccc(Cl)c(Cl)c2)CC(=O)N1CC (stereo unspecified) is listed as 0	x	x	-2.7	x	x	102
Cc1ccc(/C=C(\C#N)C(=O)N2CCCC2)c(C)c1 is listed as -1	-70	88	x	i	1	99
N#Cc1c(N)c(C(=O)c2ccc(Br)cc2)n2c1CCC2 is listed as -11	x	x	-2.0	i	0.63	99
Brc1cccc(-c2cnco2)c1 is listed as 2	x	x	x	i	1.1	96
COc1cccc(N(C(=O)Cn2nnc3ccccc32)C(C(=O)NCc2ccco2)c2cccnc2)c1 (stereo unspecified) is listed as 2	x	x	-0.9	i	1.1	94

Carrying on:
smiles,PKD1 inh,Insulin prom inh,Insulin prom inh cell count,GALR2 agonist,HSV augment,HSV augment primary fold,RGS16-Gao
O=C(CSCc1c(Cl)cccc1Cl)NN1C(=O)c2ccccc2C1=O,-8,x,x,-1.1,i,0.98,103
CC1(C(=O)c2ccccc2)C2c3c(ccc4ccccc34)OC(=O)C21C(=O)N1CCOCC1 (stereo unspecified),4,-100,148,-2.9,i,0.78,108
O=C(Nc1ccc2nc(-c3ccco3)c(-c3ccco3)nc2c1)N1CCN(c2ccccn2)CC1,-11,31,121,-1.1,x,x,64
COc1ccc(N(C)S(=O)(=O)c2cccc(C(=O)OC(C(=O)Nc3cc(C)cc(C)c3)c3ccccc3)c2)cc1 (stereo unspecified),5,-14,52,-1.1,i,0.87,90
CCCCNC(=O)c1c[nH]c2ccc(S(=O)(=O)Nc3ccc(OCC)cc3)cc2c1=O,-5,x,x,-3.2,x,x,103
O=C(O)C(O)c1ccco1 (stereo unspecified),-6,6,121,-1.8,i,0.92,49
Cc1c(/C=N/NC(N)=O)c2ccccn2c1C(=O)c1ccc(F)cc1,-10,-4,98,-0.6,i,0.91,112
CCC(=O)Nc1nnc(SCC(=O)c2ccc3c(c2)Cc2ccccc2-3)s1,-7,x,x,-3.1,i,0.89,104
COC(=O)c1cn(-c2ccccc2)nc1C(=O)OC,0,x,x,-1.2,i,0.86,107
N#CC1=C(N)Oc2cc(Nc3ccccc3)ccc2C1c1ccncc1 (stereo unspecified),-6,29,95,-1.9,i,0.99,104
COC(=O)c1sc(NC(=O)c2ccc(OC)cc2OC)nc1C,-3,17,96,-2.9,i,1,x
O=C1NC(=S)N/C1=C/c1cccc([N+](=O)[O-])c1O,-7,-39,109,-0.8,i,0.96,92
CC(=O)Nc1ccccc1NC(=O)c1ccc(C)c(C)c1,0,x,x,x,i,1,102
CS(=O)(=O)N1CCN(c2ccc([N+](=O)[O-])c(NCCN3CCOCC3)c2)CC1,-5,-25,142,-1.1,x,x,123
C=CCN(CC=C)c1cnn(-c2nc3ccccc3[nH]2)c(=O)c1Cl,0,-3,134,-3.3,i,0.84,97
CC(NC(=O)NCC1CCCO1)(C(F)(F)F)C(F)(F)F (stereo unspecified),-2,47,107,-0.3,i,1,103
CC(C)(C)OC(=O)C1C(=O)CC(C)(O)C(C(=O)OC(C)(C)C)C1c1ccco1 (stereo unspecified),-8,-5,111,-1.2,i,1,108
CCOc1ccc(-c2nc(=S)[nH][nH]2)cc1,-5,x,x,-0.1,i,0.87,98
Nc1nc(SC2c3cccc4cccc(c34)C2NS(=O)(=O)c2ccccc2)n[nH]1 (stereo unspecified),0,-33,99,-0.2,i,0.98,106
O=C(COC(=O)c1ccc(Cl)c(S(=O)(=O)N2CCCCC2)c1)NCc1ccco1,-4,x,x,x,i,0.95,104
Cc1nnsc1NC(=O)OCC(C)C,4,x,x,-1.0,i,1,102
CCNC(=S)Nc1ccc(C)c(S(=O)(=O)Nc2ccccc2OC)c1,x,x,x,x,i,1.1,102
Cc1ccc(-n2c(-c3cccnc3)n[nH]c2=S)c(C)c1,-6,0,163,-1.8,i,0.99,101
CC(C)c1ccc(C2C(C#N)=C(N)N3C(=C2C#N)Sc2ccccc23)cc1 (stereo unspecified),-1,5,70,-0.1,i,1.3,100
CN(c1cccc(NC(=O)CN(c2ccc(F)cc2)S(C)(=O)=O)c1)S(C)(=O)=O,1,x,x,x,i,1,116
CC(C)[C@H](N)c1nnc(SCC(=O)c2ccc(Cl)cc2)o1,4,-16,60,-1.2,i,0.71,103
COc1ccc(-n2nnc3c(SCC(=O)Nc4ccccc4F)ncnc32)cc1,1,x,x,x,i,0.77,111
CCCS(=O)(=O)c1nc(S(=O)(=O)c2ccc(C)cc2)c(N2CCc3ccccc3C2)s1,-12,0,64,-2.6,i,0.79,33
COc1ccc(Cl)cc1N(CC(=O)Nc1ccc2c(c1)OCCO2)S(C)(=O)=O,-5,-12,108,-1.3,i,0.84,103
Cc1nn(-c2ccc(F)cc2)c(C)c1CN1CCN(CCC(C)C)C(CCO)C1 (stereo unspecified),5,x,x,x,i,0.92,108
COc1ccc(-c2nnn(CC(=O)Nc3sc4c(c3C#N)CCCC4)n2)cc1,-1,x,x,-1.7,i,0.86,111
Cc1cc(C)cc(OCC(=O)N/N=C/c2ccccn2)c1,x,x,x,x,i,0.88,95
COc1ccc(C)c2sc(NNC(=O)COc3ccccc3)nc12,3,11,76,x,i,1.1,99
Cn1c(=O)cc(OCCCC(=O)Nc2ccc3c(c2)OCCO3)c2ccccc21,2,-69,136,-0.7,i,0.79,101
O=C(NCc1ccccn1)C1CCN(S(=O)(=O)N2CCCCC2)CC1,-4,31,120,0.5,i,1.1,105
Cc1ccc(Cl)cc1N1CCN(S(C)(=O)=O)CC1,-2,-25,109,-0.1,i,1.1,102
CCN1/C(=C2\OC(=S)N(C)C2=O)Sc2ccccc21,-11,x,x,-1.8,x,x,102
CCOC(=O)c1c(C)oc2cc3c(C(=O)OCC)c(C)oc3cc12,0,10,79,-3.4,x,x,x
COc1ccc(C(=O)OCCc2ccc(O)cc2)cc1,-13,-19,106,-1.2,i,0.9,98
CN(c1ccc(O)cc1)c1nc(-c2ccccc2)cs1,0,14,105,0.1,i,0.94,113
CCOC(=O)c1sc2nc(SCC(=O)N(CC)CC)n(CCCN3CCCC3=O)c(=O)c2c1C,-4,-114,74,x,i,0.75,104
CN(C)C(=O)c1cc([N+](=O)[O-])cc([N+](=O)[O-])c1N(C)C,14,x,x,-2.1,i,0.63,98
O=C(O)CNC(=O)c1ccc(N2CCOCC2)cc1[N+](=O)[O-],-7,-7,98,x,i,1,100
CSCCC(NC(=O)c1cc([N+](=O)[O-])cc([N+](=O)[O-])c1)c1nc2ccccc2[nH]1 (stereo unspecified),4,37,79,-0.5,i,1.1,101
O=C1c2ccccc2C(=O)N1CCCc1nc2ccccc2c(=O)n1-c1cccnc1,-6,x,x,-0.1,i,0.97,98
Cc1nnc(NC(=O)CSc2nc3c(c(=O)n(C)c(=O)n3C)n2C(C)C)s1,9,x,x,x,i,0.94,105
Cc1ccc(-n2nnnc2SCC(=O)c2cc(C)n(-c3cc(C)on3)c2C)c(C)c1,-8,x,x,-1.1,i,0.94,95
CCN1CCCC1CNC(=O)C1CCN(C(=O)c2cc3sccc3n2Cc2ccc(F)cc2)CC1 (stereo unspecified),-2,11,99,x,i,0.99,98
CCCCCCN1C2=NCCCN2c2ccccc21,x,x,x,x,i,1,106
O=c1oc2ccccc2cc1-c1csc(Cc2nc(-c3ccc(Br)cc3)cs2)n1,-12,x,x,-2.9,i,1.1,104
O=C(NCc1ccccc1)c1cccc(COc2cccc(Cl)c2)c1,-16,x,x,-0.3,i,1,104
Cc1ccc(Nc2cc(C)nc(-c3ccccc3O)n2)cc1,7,-7,123,-1.3,i,0.69,105
COCC(C)N=C1NN=C(c2ccc(NC(C)=O)cc2)CS1 (stereo unspecified),-3,-45,187,x,i,0.9,111
Cc1cccc(N(Cc2cc3ccc(C)cc3[nH]c2=O)C(=O)c2ccco2)c1,x,x,x,x,i,1,86
COC(C[C@H](O)CC(=O)[C@H](C)OCc1ccccc1)OC,x,x,x,x,i,0.85,99
CC1c2c([nH]c3ccccc23)CCC1C(=O)O (stereo unspecified),-4,5,136,-1.0,i,0.89,94
COC(=O)Cc1c(C)nc2nc(-c3ccco3)[nH]n2c1=O,-8,-33,87,-1.8,i,1.1,104
Cc1cc(=O)n2[nH]cc(C(=O)O)c2n1,1,67,109,-3.1,i,1.1,109
Cn1nccc1C(=O)N1CCCC(C(=O)c2cccc3ccccc23)C1 (stereo unspecified),0,30,179,x,i,0.91,99
O=C(NCC1CCCO1)c1cc(C(=O)c2ccc(Cl)cc2Cl)c[nH]1 (stereo unspecified),-3,x,x,x,i,0.99,102

Additional results follow.
smiles,PKD1 inh,Insulin prom inh,Insulin prom inh cell count,GALR2 agonist,HSV augment,HSV augment primary fold,RGS16-Gao
COc1ccc(NC(=O)/C=C/c2cc(Br)ccc2OC)cc1,-15,-20,64,-3.1,i,0.89,99
Cn1c(Cn2c(=O)sc3ccccc32)nnc1SCC(=O)Nc1cccc(F)c1,6,x,x,-1.1,i,0.97,99
CCOC(=O)NC(=O)CN1C(=O)NC(C)(c2ccccc2)C1=O (stereo unspecified),15,x,x,-0.6,i,0.98,108
O=C(CCC(=O)Nc1ccccc1Cl)N/N=C/c1ccccc1,1,-30,98,-0.4,i,1.1,32
COc1ccc(-c2cc(C(F)F)n3ncc(C(=O)N4CCN(C)CC4)c3n2)cc1,-5,12,100,-1.0,i,1,104
CC1(C)C2CC=C(/C=N/NC(=O)c3ccc(O)cc3)C1C2 (stereo unspecified),-4,x,x,0.1,i,0.85,107
COc1ccc(C(=O)CSc2nc3[nH]ncc3c(=O)[nH]2)cc1,-6,x,x,x,i,0.98,103
O=C(Nc1ccc(F)cc1F)N1CCN(C/C=C/c2ccccc2)CC1,4,x,x,-1.3,i,0.76,106
COc1cc2nc(NC(=O)c3ccco3)sc(=O)c2cc1OC,x,x,x,x,i,0.64,103

Records above printed as active in GALR2 agonist:
mol	PKD1 inh	GALR2 agonist	HSV augment primary fold	RGS16-Gao
COCCNC(=O)c1c(N)n(-c2ccccc2)c2nc3ccccc3nc12	-1	4.9*	0.96	98

Source: PubChem (several laboratories)
